2A Renilla – Primary qHTS Assay for Foot and Mouth Disease Virus Antivirals against NCGC Sytravon and CBC Compound Libraries: Renilla Luciferase Signal | HEK cells with a luciferase reporter of 2A StopGo recoding | AID 1745857, 2022 | Potency, µM (doses to about 57.5 µM), inactives show at the highest dose signal change, negative = less light | 120,000 compounds, 0.32% hits; active means well fitted falling curve with a large enough effect; inconclusive means small, poorly fitted or top-dose-only effect; inactive means no such curve, though single readings can be large or run the other way; further: nearly all actives have a fitted effect of over 55% in size; overnight with compound
StopGo FLuc – Primary qHTS Assay for Foot and Mouth Disease Virus Antivirals against NCGC Sytravon and CBC Compound Libraries: Firefly Luciferase Signal; HEK cells with a luciferase reporter of 2A StopGo recoding; Potency, µM (series often up to 57.5 µM), for inactives: at the highest dose signal change, negative = less light; 120,000 compounds, 0.23% hits; AID 1745856, 2022; active = well fitted falling curve with a large enough effect; inconclusive = small, poorly fitted or top-dose-only effect; inactive = no such curve, though single readings can be large or run the other way; further: nearly all actives have a fitted effect of over 60% in size; overnight with compound
Starred values were filed as active, the others as inactive; ? = inconclusive; [ ] = dose if it differs, or a comment. On the % scale 0 is the no-effect control and ±100 the full control effect; potency means the concentration at half of the fitted maximal effect. The list is partial; count on the stated rates, not on these rows.

Below each SMILES – 2A Renilla | StopGo FLuc
Cc1ccccc1CN1CCC(CNc2ncnc3onc(-c4ccc(Cl)cc4)c23)CC1
    -1.0% | -7.0%
Cc1cccc(NC(=O)N2CCc3c(sc4c3CCCC4)C2c2ccc(F)cc2)c1 (centres undefined)
    -15.8% | -15.0%
O=C(NC1CCCCCC1)C1CCN(C(=O)N2CCOc3ccccc32)CC1
    -4.3% | 15.0%
CCOc1ccc(NC(=O)c2c(NCc3cccs3)sc3c2CCCCC3)cc1
    76.5%[activator] | 52.0%[activator]
CCCCCCNC(=O)Cc1cccc2ccccc12
    23.5% | 54.7%[activator]
CCCNc1c(NS(=O)(=O)c2ccccc2)c(=O)oc2ccccc12
    23.6% | 19.9%
COc1ccc(NS(=O)(=O)c2ccc(-c3cnc(C4CC4)o3)cc2)cc1
    45.2%[activator] | ?
CC(OC(=O)c1c[nH]c2ccccc12)C(=O)NCc1ccccc1 (centres undefined)
    16.6% | 21.5%
COC(=O)c1cc(N)ccc1N1CCOCC1
    11.4% | 12.3%
COc1cccc(C(c2sc3nc(-c4ccco4)nn3c2O)N2CCN(C)CC2)c1 (centres undefined)
    12.4% | -4.5%
COc1ccc(OC)c(C(O)c2nc3ccccc3n2C)c1 (centres undefined)
    77.3%[activator] | 12.4%
CC(C)c1ccc(NC(=O)Cn2c(=O)n(Cc3nc(-c4ccccc4)no3)c(=O)c3cc4c(cc32)OCO4)cc1
    -8.2% | 0.0%
C(=C\c1nc2ccccc2s1)/c1cccc(Oc2ccccc2)c1
    6.5% | 3.0%
CC(C)C(=O)NC(=S)Nc1ccc(NC(=O)c2cccc(Cl)c2)cc1
    21.7% | 175.9%[activator]
Cc1cccc(C)c1-n1ncc(C(=O)NCCN2CCOCC2)c1C1CCN(C(=O)OC(C)(C)C)CC1
    24.3% | -16.4%
CCOc1ccccc1N(CC)C(=O)Cn1ncc2c([nH]c3ccccc32)c1=O
    18.6% | -9.3%
CCOc1ccc(Nc2cc(C(=O)NCC(OC)OC)c3ccccc3n2)cc1
    -5.1% | -0.9%
CCc1ccccc1NC(=O)CN1C(=O)COc2ccc(S(=O)(=O)Nc3ccccc3)cc21
    148.7%[activator] | -7.7%
O=C(CN1C(=O)C2(SCC(=O)N2c2cccc(F)c2)c2ccccc21)NCc1ccccc1Cl (centres undefined)
    0.0% | -5.4%
Cc1ccc(-n2ncc(C(=O)NCCN3CCN(C)CC3)c2C2CCN(C(=O)OC(C)(C)C)CC2)cc1
    16.4% | -14.0%
CC(C)C(NC(=O)CSc1cc(Cl)ccc1Cl)c1ccc2c(c1)OCCCO2 (centres undefined)
    20.7% | -3.2%
COc1cccc(-c2cc(C(=O)NC3CCCC3)c3ccccc3n2)c1
    25.5% | 13.1%
Cc1cccc2c1NC(=O)C21CC(=O)Nc2c1cnn2C(C)(C)C (centres undefined)
    -6.7% | 0.8%
CCOc1nc2ccccc2nc1N1CCC(C(=O)Nc2ccc(C(C)=O)cc2)CC1
    1.9% | 8.8%
O=C(CCc1nc(-c2ccccc2)no1)Nc1nc2ccccc2s1
    -2.1% | 50.5%[activator]
O=C(NC1CCCC1)c1ccc2c(c1)N(Cc1ccccc1Cl)C(=O)c1ccccc1S2
    4.5% | -14.7%
Cc1cc(C)c(NC(=O)Cn2cnc3c(oc4ccccc43)c2=O)c(C)c1
    -2.3% | 11.9%
CCc1ccc(NC(=O)Cc2nc(-c3[nH]c(C)c(C(C)=O)c3C)cs2)cc1
    29.8% | 43.2%[activator]
COc1cccc(CNC(=O)CCCn2ncn3c(cc4occc43)c2=O)c1
    -24.0% | 0.0%
Cn1c(=O)n(Cc2ccccc2Cl)c(=O)c2c1nc1n2CCN1c1ccccc1
    -3.8% | 9.8%
CCCc1nnc(NC(=O)Cc2coc3c(C)c(C)ccc23)s1
    -9.4% | -15.6%
CCOc1ccc(C2c3c(oc4cc(C)c(C)cc4c3=O)C(=O)N2c2ccccn2)cc1 (centres undefined)
    74.2%[activator] | -14.5%
COc1ccc(Nc2cc(C(=O)NCc3cccs3)c3ccccc3n2)cc1
    15.0% | 16.8%
Cc1ccccc1-c1noc(-c2ccc(NCc3ccco3)c([N+](=O)[O-])c2)n1
    -7.9% | 24.9%
Cc1ccc(S(=O)(=O)c2cn(CC(=O)Nc3ccccc3C)c3cc4c(cc3c2=O)OCO4)cc1
    -3.5% | -11.9%
COC(=O)COc1ccc2cc(-c3ccc(OC)cc3)c(=O)oc2c1
    14.3% | 36.2%[activator]
Cc1cc(-n2c(C)cc(C(=O)CSc3nnc(COc4ccccc4Cl)n3C)c2C)no1
    24.7% | -0.9%
O=C(/C=C/c1ccccc1)OCCCc1ccccc1
    4.4% | 0.0%
CCOc1cc(C=O)cc(Br)c1OC(=O)c1ccc(OC)cc1
    -10.9% | 8.6%
Cc1ccc(CCNC(=O)CN(c2cc(C)cc(C)c2)S(=O)(=O)c2c(C)noc2C)cc1
    -18.8% | -25.5%
Cc1ccc(Cn2c(=O)n(-c3ccc(C)cc3)c(=O)c3c2c2cc(C)ccc2n3C)cc1
    17.7% | 32.9%[activator]
COc1ccccc1Cn1c(CNS(=O)(=O)c2ccc3c(c2)CCCC3)nc2cccnc21
    6.1% | -13.6%
COc1ccc(-n2c(=O)c3c(c4cc(OC)ccc4n3C)n(Cc3cccc(C)c3)c2=O)cc1
    -8.4% | -8.7%
O=C(NCCc1ccccc1)c1nnc(Cc2cccc(F)c2)o1
    -11.2% | 0.0%
CC(=O)c1ccccc1NC(=O)c1ccc2ccccc2n1
    9.3% | 208.1%[activator]
Cc1ccccc1OCC(=O)Nc1ccccc1C(=O)OCc1cc(=O)n2ccsc2n1
    -2.9% | 36.7%[activator]
CSc1ccc(/C=C/c2nc3ccccc3n2S(=O)(=O)c2ccc(F)c(C)c2)cc1
    -5.0% | -22.2%
Fc1ccccc1COc1ccc2ccccc2c1CNCc1ccccn1
    ? | ?
CCCc1nnc(NC(=O)c2cc(=O)c3cc(CC)ccc3o2)s1
    0.1% | -3.8%
Cc1ccc(-c2nc(SCC(=O)NCc3ccco3)c3c(=O)n(C)c(=O)n(C)c3n2)cc1
    -8.8% | -0.5%

Quoted from the listing.
For StopGo FLuc, `CCCc1nnc(NC(=O)Cc2coc3c(C)c(C)ccc23)s1` is entered as -15.6%
For StopGo FLuc, `COc1ccc(OC)c(C(O)c2nc3ccccc3n2C)c1` (centres undefined) is entered as 12.4%

Later entries:
Below each SMILES – 2A Renilla | StopGo FLuc
COc1cc(OC)c(NC(=O)CSc2nc3ccncc3[nH]2)cc1Cl
    ? | ?
COC(=O)C1(NC(=O)c2ccc(OC)c(OC)c2)CCCCC1
    -5.9% | -6.2%
CCOc1ccc(CNS(=O)(=O)c2ccc3[nH]c(=O)ccc3c2)cc1
    -3.1% | -10.9%
COc1ccc(Cc2nnc(SCC(=O)Nc3ccc(F)c(F)c3)n2C)cc1
    17.9% | 9.5%
CC(=O)Nc1ccc(NC(=O)CCCc2nc(-c3ccc(C(C)(C)C)cc3)no2)cc1
    -8.7% | -99.9%
COc1cccc(-c2cc(C(F)F)n3ncc(C#N)c3n2)c1
    -4.8% | 0.5%
CCOC(=O)N1CCN(Cc2cc(=O)oc3c(C)c(C)ccc23)CC1
    -8.0% | 8.2%
Cc1nc2cc(NC(C)c3nc(C(C)C)no3)ccc2o1 (centres undefined)
    0.9% | 41.8%[activator]
COC(=O)c1ccc(COC(=O)Cc2coc3cc(C)ccc23)cc1
    3.6% | 7.1%
COc1ccc(CCNC(=O)CCCn2c(=O)c3ccccc3n(CC(=O)Nc3cccc(C)c3)c2=O)cc1OC
    0.0% | 27.5%
COCC(=O)N1CCN(Cc2nc(-c3cccs3)oc2C)CC1
    -11.8% | -6.9%
CCc1ccc(NC(=O)C2CCCN(S(=O)(=O)c3ccc4c(c3)CCCN4C(C)=O)C2)cc1 (centres undefined)
    160.8%[activator] | -14.8%
CCOC(=O)c1cc(C)n(CC2CCC(C(=O)Nc3ccc(OC)c(OC)c3)CC2)c1C (centres undefined)
    -6.9% | 0.6%
CCS(=O)(=O)c1nc(S(=O)(=O)c2ccc(C)cc2)c(NCc2ccc(Cl)cc2)s1
    183.1%[activator] | 7.2%
COc1ccccc1N1CCN(C(=O)Cn2c(=O)n3nc(-c4cccc(C)c4)nc3c3ccccc32)CC1
    -5.8% | -5.7%
Cc1ccc(NC(=O)N[C@@H](CC(C)C)C(=O)O)cc1Cl
    -10.5% | 2.3%
Cc1nn(CCCC(=O)Nc2cccc(F)c2)c(=O)c2c1sc1ccccc12
    2.3% | 0.0%
O=CN1CCN(C(C(=O)O)c2c[nH]c3ccc(NC(=O)c4ccccc4)cc23)CC1 (centres undefined)
    -3.1% | 52.6%[activator]
CCCn1c(=O)n(CC(=O)Nc2ccccc2OC)c(=O)c2c1nc(C)n2CCOC
    -0.4% | -5.4%
COc1ccc(OC)c(C2=NS(=O)(=O)N(C)C(C(=O)N3CCN(C)CC3)=C2)c1
    0.7% | -5.6%
O=C(Nc1ccc2c(c1)CCC2)c1c(F)cccc1F
    15.3% | 191.6%[activator]
Cc1oc2ncn(C)c(=O)c2c1C(=O)N1CCN(c2ccccc2)CC1
    -4.3% | 2.2%
CCOc1ccc(NC(=O)Cn2nc(-c3ccncc3)ccc2=O)cc1
    -11.7% | -11.3%
COc1ccc(CCNC(=O)c2ccc(CS(=O)(=O)Cc3cccc(C)c3)o2)cc1OC
    ? | ?
CCOC(=O)c1ccccc1NC(=O)c1sc2ncn(Cc3cccc(F)c3)c(=O)c2c1C
    -2.4% | -5.4%
CCOc1ccc(-c2cc(NC(=O)Nc3ccccc3C(F)(F)F)c(C(=O)OC)s2)cc1
    -6.0% | 62.5%[activator]
CNC(=S)NNC(=O)CSCc1ccccc1
    1.5% | 0.2%
Cc1nc2ccccc2nc1SCC(=O)N(C)C(C)c1ccc(F)cc1 (centres undefined)
    35.5µM* | 28.2µM*
CN(C(=O)CSc1nc2ccccc2n1Cc1ccccc1C#N)c1ccccc1
    29.4% | 22.3%
O=C(Cc1cccc2cccnc12)NCC1CC1
    6.5% | 3.5%
Cc1ccc(Cl)cc1N1CCN(C(=O)C2CCC(CNS(=O)(=O)c3cccs3)CC2)CC1 (centres undefined)
    ? | -6.3%
Cc1cc(C)n2nc(C(=O)OC(C)C(=O)c3c(C)[nH]c4ccccc34)nc2n1 (centres undefined)
    1.5% | 2.9%
COc1ccc(OC)c(C2CCCN2C(=O)NCCn2ccnc2)c1 (centres undefined)
    -9.0% | -1.4%
CCOc1ccc(NC(=O)CN2CCN(C3CCCCC3)C(=O)C2=O)cc1
    -4.0% | 22.3%
O=C(N(Cc1ccc2cc[nH]c2c1)C1CC1)C12CC3CC(CC(C3)C1)C2
    2.4% | -10.1%
CCOC(=O)c1ccccc1NC(=O)Cn1c(=O)n(Cc2nc(-c3ccccc3)no2)c(=O)c2ccccc21
    -14.2% | -16.1%
COc1ccc(S(=O)(=O)N(CC(=O)NCCSc2ccccc2)c2ccc(C)cc2)cc1
    -5.7% | -10.3%
Nc1c(-c2nc(-c3cccs3)no2)nnn1-c1cccc(Cl)c1
    -10.9% | 0.0%
CC(=O)CC1(O)C(=O)Nc2ccc(F)cc21 (centres undefined)
    2.2% | -2.8%
O=C(CCl)NC(NC(=O)CCl)c1ccccc1
    ? | ?
O=C(CCc1ncc(-c2ccc(F)cc2F)o1)Nc1ccc(Cl)cc1
    -15.5% | 8.1%
Cc1ccc2nc(CSc3ccccc3NS(=O)(=O)c3c(C)noc3C)cc(=O)n2c1
    -3.2% | 136.5%[activator]
CCN(CC)S(=O)(=O)N1CC=C(c2c(OC)cc(OC)cc2OC)CC1
    14.6% | 5.3%
COCCNC(=S)N(CCC#N)CCN(CCC#N)C(=S)NCCOC
    -12.4% | -10.7%
COc1ccc(CNC(=O)c2cc3cccc(OC)c3oc2=O)cc1
    1.2% | -0.3%
COc1cccc2[nH]c(C(=O)N3CCC(c4nnc5ccccn45)CC3)cc12
    6.4% | 17.1%
Cc1ccc2oc(=O)c(S(=O)(=O)c3ccc(F)c(C)c3)cc2c1
    -13.4% | -5.2%
Cc1cccc(Cn2c(SCc3ccc(C(=O)N4CCCCCC4)cc3)nc3ccncc32)c1
    -22.3% | ?
CC(NC(=O)C1CC1)c1ccncc1 (centres undefined)
    16.4% | 0.0%
CCOC(=O)c1c(C)oc2c1cc(NS(=O)(=O)c1ccc(C)cc1)c1ccccc12
    144.8%[activator] | 16.8%

New compounds follow
Below each SMILES – 2A Renilla | StopGo FLuc
CCc1ccc(CN(C)C(=O)NC(c2ccc3c(c2)OCCCO3)C(C)C)cc1 (centres undefined)
    9.2% | -13.9%
CCc1ccccc1NC(=O)C1CCCN(c2cnc3ccccc3n2)C1 (centres undefined)
    -0.7% | 12.1%
CNc1c(NC(=O)NC(C)C)c(=O)oc2ccccc12
    1.3% | 53.3%[activator]
COC(=O)c1ccc(NC(=O)C(C)N2Cc3ccccc3C2=O)cc1 (centres undefined)
    2.8% | 3.0%
Cc1ccc(CNC(=O)CCNS(=O)(=O)c2cccc3nsnc23)cc1
    0.0% | 16.0%
O=C(COc1ccc2ccc(=O)oc2c1)NC(=O)NC12CC3CC(CC(C3)C1)C2
    1.6% | -2.7%
CN(C)CCNC(=O)C(=O)Nc1cccc2ncccc12
    -0.9% | 5.6%
COc1ccc(CCNC(=O)CCCCn2c(=O)c3ccccc3n(Cc3cccc(C)c3)c2=O)cc1OC
    -6.9% | -8.0%
COc1ccc(C(=O)OCc2nc(N)c3ccccc3n2)cc1
    19.4% | 102.2%[activator]
